# High-throughput results deposited in PubChem BioAssay by National Center for Advancing Translational Sciences (NCATS).
# HSD17B inh: qHTS Assay for Inhibitors of HSD17B4, hydroxysteroid (17-beta) dehydrogenase 4. 3-hydroxyacyl-CoA dehydrogenase type-2 (Homo sapiens), Q99714. recombinant HSD17B10, NADH fluorescence kinetic; many of its hits are not listed in these tables. Potency, µM (highest dose often 57.1 µM), for inactives: at the top dose activity change, negative = inhibition, most hits filed as inhibitors. hit rate 7.6% among 75,000. AID 893, 2007; active = well fitted inhibition curve with a large enough effect; inconclusive = small, poorly fitted or top-dose-only effect; inactive = no such curve, though single readings can be large or run the other way;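 note: the protocol describes HADH2 (HSD17B10) and not the HSD17B4 of the title; nearly all actives have a fitted effect of over 70% in size; most hits overshoot -100% by far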
#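 His-tagged E. coli-expressed HADH2 at 20 nM in 100 mM Tris-HCl pH 9.0 with 0.01 % Tween-20, preincubated 15 min with compound at room temperature. Reaction with 1 mM NAD+ and 90 uM beta-hydroxybutyryl coenzyme A; NADH fluorescence (360/450 nm) read kinetically over 4 min, last minus first point.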
# * marks the source's active call; other numbers are inactive results; ? = inconclusive; & = joins results of further samples; [ ] = remark or other dose. % is set by controls: 0 for no effect and ±100 for the full control effect; potency is the fitted concentration of half-maximal effect.
SMILES,HSD17B inh
Cc1ccc(S(=O)(=O)N[C@H]2COC(=O)C/C=C\[C@@H](C)[C@H](NS(=O)(=O)c3ccc(C)cc3)COC(=O)[C@H](C)NC(=O)C/C=C\[C@H]2C)cc1,-6%[11.4 µM]
COc1cccc(CNc2nc3nc(C)c(Cl)c(C)n3n2)c1,25µM*
Oc1ccc(-c2onc(C(F)(F)F)c2-c2cscn2)c(O)c1,1%
CC(=O)N[C@H](Cc1c[nH]c2ccccc12)C(=O)O,2%[11.4 µM]
CCc1ccc(NS(=O)(=O)c2cccs2)cc1,5%
Cc1cc(=O)[nH]c(SCC(=O)C23CC4CC(CC(C4)C2)C3)c1C#N,-15%
CCOC(=O)c1c(C)[nH]c(C(=O)CSc2ccccc2)c1C,8%
Cn1cnnc1SCC(=O)Nc1sc2c(c1C#N)CCCCC2,-17%
Oc1cc(Cc2ccccc2)cnc1CN1CCOCC1,0%
O=C(Nc1ccc(OC(F)(F)F)cc1)C1CCCN(S(=O)(=O)c2cccnc2)C1 (stereo unspecified),-5%
CCOC(=O)c1ccc(NC(=O)NS(=O)(=O)c2ccc(C)cc2)cc1,5%
Cc1nc2cc(NC(=O)NCc3ccc4c(c3)OCO4)ccc2o1,0%

# Reprinted from above for reference:
SMILES,HSD17B inh
CCOC(=O)c1ccc(NC(=O)NS(=O)(=O)c2ccc(C)cc2)cc1,5%
Cc1nc2cc(NC(=O)NCc3ccc4c(c3)OCO4)ccc2o1,0%

# Next section:
SMILES,HSD17B inh
Cc1cc2c(cc(C(=O)NCc3cccnc3)n2Cc2ccc(Cl)cc2)o1,?
CCOCCCNC(=O)CN(Cc1ccc(Cl)cc1)S(C)(=O)=O,-7%
CCOC(=O)Cn1cc(C(=O)C2CC2)c2ccccc21,12%
CNc1nc2c(c(=O)[nH]c(=O)n2C)n1CCOC,-9%
CC(C)c1nc2sc3c(SCC(=O)NCc4ccco4)ncnc3c2c2c1CCC2,-3%
Nc1c(C(=O)NCc2cccnc2)sc(=S)n1-c1ccccc1,?
O=c1[nH]cnc2c1ncn2C1OC(CO)C(O)C1O (stereo unspecified),8%&0%&-3%
CC(=O)N1CCC2(CC1)CN(c1ccccn1)C2,25µM*
Cc1cccc(-n2c(O)c(C=Nc3ccccc3N)c(=O)[nH]c2=O)c1,-9%
COc1cccc(-c2nn(-c3ccccc3)cc2C(=O)NCC(=O)O)c1,-4%
CCOC(=O)c1c(C)[nH]c(C(=O)Cn2c(=O)oc3ccccc32)c1C,5%
Cc1ccc2c(c1)N(CCC(=O)NCCCOC(C)C)C(=O)C(C)O2 (stereo unspecified),3%

# Part of the list above, set out differently:
Structure: O=c1[nH]cnc2c1ncn2C1OC(CO)C(O)C1O (stereo unspecified)
  HSD17B inh: 8%&0%&-3%
Structure: CC(=O)N1CCC2(CC1)CN(c1ccccn1)C2
  HSD17B inh: 25µM*

# Next part.
SMILES,HSD17B inh
COc1ccc(-c2ccc(-c3nnc(Cc4ccc(OC)c(OC)c4)o3)cc2)cc1,2.5µM*
Cc1cc(NCCN2CCOCC2)n2ncc(-c3ccc(Cl)cc3)c2n1,13%
CS(=O)(=O)N1CCC(C(=O)Nc2cc(C(F)(F)F)ccc2Cl)CC1,-2%
COc1ccc(OCC(=O)Nc2cc(-c3nn4c(C)nnc4s3)ccc2C)cc1,-4%
CN1c2ccccc2-c2nc3ccccc3n2C1c1ccncc1 (stereo unspecified),25µM*
COc1cc(C)nc(NS(=O)(=O)c2ccc(C)cc2)n1,2%
CN(Cc1ccc(OC(F)F)cc1)C(=O)c1ccc2nccnc2c1,9%
Cc1cc(Cl)cc(Br)c1OCCNCC(C)O (stereo unspecified),6%
COc1ccc(OC)c(N=C2C(=O)Nc3ccccc32)c1,-4%
O=C(CCCc1ccccc1)N1CCc2ccccc21,-1%
COc1ccc(CCNc2c(N)n(Cc3ccccc3)c(=O)[nH]c2=O)cc1OC,?
CCCc1nc(SCC(=O)NCc2ccco2)c2c(=O)n(C)c(=O)n(C)c2n1,1%
CCN(CC)[C@@H](C)CN1c2ccccc2Sc2ccccc21,?
CC1CC[C@@]2(OC1)OC1CC3C4CC[C@@H]5CC(O)CC[C@@]5(C)C4CC[C@]3(C)C1C2C (stereo partly specified),7%
O=C(COc1ccc(Cl)cc1Cl)NC1CCSC1=O (stereo unspecified),4%
CCC(=O)Nc1cccc(-c2nnc(SCC(=O)c3ccccc3)n2C)c1,-4%
COc1ccc(C(=O)Nn2c(C3CCC3)nc3ccccc3c2=O)c(OC)c1,8%
O=C(CC(c1ccccc1)c1cc(Br)ccc1O)NCc1ccco1 (stereo unspecified),-5%
CCOC(=O)C1CCCN(Cc2cccc(Cl)c2)C1 (stereo unspecified),7%
CN1CCN(C(=O)c2cccc(S(=O)(=O)N3CCCCC3)c2)CC1,-6%
CS(=O)(=O)N(CC(=O)N1CCN(c2ccccc2F)CC1)c1cccc(C(F)(F)F)c1,0%
O=C(CN1CCN(c2nc(-c3ccccc3)cs2)CC1)Nc1ccc2c(c1)OCO2,10%
CCOc1cc(S(=O)(=O)NCc2ccco2)c(OCC)cc1-n1cnnn1,32µM*
COc1ccccc1C(=O)NCc1ccc2c(c1)OCO2,6%
O=C(C1CCCN1S(=O)(=O)c1cccc2cccnc12)N1CCc2ccccc21 (stereo unspecified),0%
O=C1CCCC(O)=C1C(C#Cc1ccccc1)C1=C(O)CCCC1=O,?
Cn1cccc1C(=O)N1CCC[C@@]2(CCN(C(=O)Nc3cccc(C#N)c3)C2)C1,4%
O=C(Nc1ccc2oc(-c3ccncc3)nc2c1)c1c(F)c(F)c(F)c(F)c1F,?
COc1ccccc1CC(=O)N(CCC#N)CCC#N,11%
Cc1ccc(S(=O)(=O)NCc2ccc(C(=O)N3CCN(c4ccccn4)CC3)cc2)cc1,?
O=C(NCc1cccc(C(F)(F)F)c1)C1CCN(c2ncccn2)CC1,1%
C(=N\n1cnnc1)/c1ccc(OC2CSC2)cc1,1%
CC1=C(C)C(=O)NC(Nc2nc(C)c3cc(C)cc(C)c3n2)N1 (stereo unspecified),8%
COc1ccccc1-c1cc(=O)c2cc(O)ccc2o1,4%
N#Cc1ccccc1NC(=O)COC(=O)c1ccc2c(c1)OCCO2,3%
CCOC(=O)CC1=C(C(=O)OCC)C(c2ccc(OC)cc2OC)C(C#N)=C(N)O1 (stereo unspecified),9%
O=C(CCS(=O)(=O)c1ccc(Cl)cc1)N1CCN(S(=O)(=O)c2cccs2)CC1,7%
NC(=O)CCCCC(N)=O,-3%
COCc1cc(C)nc(SCC(=O)Nc2ccccc2C)c1C#N,-4%
Nc1cc(Cl)c(N)c(Cl)c1,4%
CCC(OC(=O)c1cc2sccc2n1C)C(=O)NCC1CCCO1 (stereo unspecified),7%
Nc1cc(N)nc(SCCOc2ccccc2)n1,2%
O=C(c1ccccc1)c1ccc(C(=O)N2CCOCC2)cc1,4%
CCCC(=O)c1ccc(N2CCN(S(=O)(=O)c3ccccc3)CC2)c(F)c1,-4%
Cc1ccc(N(CC(=O)Nc2ccc3c(c2)OCCO3)S(=O)(=O)c2c(C)noc2C)cc1,-6%
CCOC(=O)c1nnn(-c2nonc2N)c1-c1cccc2ccccc12,32µM*
CC12C=C(/C=C/C=C/c3ccco3)C(C)(C1)C(/C=C/c1ccco1)CC2=O (stereo unspecified),?
COc1ccc(C(=O)Nc2nccs2)cc1OC,-7%
O=S(=O)(NCc1cccnc1)c1cc(Cl)ccc1Cl,2%
CS(=O)(=O)N1CCC2(CCN(c3cccc(-c4ccccc4)c3)CC2)CC1,?
CCOC(=O)c1ccc(NS(=O)(=O)N2CCCCCC2)cc1,-13%
Cc1ccc(NC(=O)CSC2=C(C#N)C(c3ccc4c(c3)OCO4)C3=C(CCCC3=O)N2)c(C)c1 (stereo unspecified),?
CCOC(=O)c1c(C)oc2ccc(OCC(=O)N(CC)CC)cc12,-14%
Cc1ccc(NC(=O)c2cc(NC(=O)c3ccco3)ccc2N2CCCCC2)cc1,?
CCOC(=O)CN1CC23C=CC(O2)C(C(=O)Nc2ccc(F)c(C)c2)C3C1=O (stereo unspecified),-4%
Cc1cccc(NC(=O)CSc2nnc(-c3ccccc3Br)o2)c1C,-2%
O=C(O)CCNc1ncnc2nc[nH]c12,2%[11.4 µM]
CC(C)(C)OC(=O)N1CCC(C(=O)N2CCC[C@H]2C(=O)O)CC1,5%
CCCS(=O)(=O)N1CCCC(C(=O)NC2CCCC(C)C2C)C1 (stereo unspecified),5%
Cc1ccc(Cl)cc1NC(=O)CCn1cccc1,-2%

# By substructure, those above with a cyano group (eight)
SMILES,HSD17B inh
Cc1cc(=O)[nH]c(SCC(=O)C23CC4CC(CC(C4)C2)C3)c1C#N,-15%
Cn1cnnc1SCC(=O)Nc1sc2c(c1C#N)CCCCC2,-17%
Cn1cccc1C(=O)N1CCC[C@@]2(CCN(C(=O)Nc3cccc(C#N)c3)C2)C1,4%
COc1ccccc1CC(=O)N(CCC#N)CCC#N,11%
N#Cc1ccccc1NC(=O)COC(=O)c1ccc2c(c1)OCCO2,3%
CCOC(=O)CC1=C(C(=O)OCC)C(c2ccc(OC)cc2OC)C(C#N)=C(N)O1 (stereo unspecified),9%
COCc1cc(C)nc(SCC(=O)Nc2ccccc2C)c1C#N,-4%
Cc1ccc(NC(=O)CSC2=C(C#N)C(c3ccc4c(c3)OCO4)C3=C(CCCC3=O)N2)c(C)c1 (stereo unspecified),?

# (further entries)
SMILES,HSD17B inh
Cc1ccc(-c2nsc3c(N4CCC(C(N)=O)CC4)ncnc23)cc1,0%
CCOC(=O)c1c(C)nn(Cc2cccc(Cl)c2)c1N,0%
O=C(CSc1nc2ccsc2c(=O)n1-c1ccccc1)N1CCCC1,4%
CCN(c1ccccc1)c1nc2ccsc2c(=O)s1,?
O=C(O)C1CC=CCC1C(=O)Nc1cccc(F)c1 (stereo unspecified),8%
CCOC(=O)c1cccc(NC(=O)CSc2nc(N)cc(N)n2)c1,-1%
CC1(C)OC(C(O)(c2cc(C(F)(F)F)cc(C(F)(F)F)c2)c2cc(C(F)(F)F)cc(C(F)(F)F)c2)C(C(O)(c2cc(C(F)(F)F)cc(C(F)(F)F)c2)c2cc(C(F)(F)F)cc(C(F)(F)F)c2)O1 (stereo unspecified),3%[11.4 µM]
CCCOC(=O)c1ccc(NC(=O)c2cnccn2)cc1,-2%
Cn1nc(C(=O)NCc2ccccc2)c2ccccc2c1=O,-2%
CCOc1ccc(Nc2nc(Cc3nnc(SCC(=O)NCc4ccco4)n3CC)cs2)cc1,2%
O=C1c2ccccc2CCC1C(O)c1ccccn1 (stereo unspecified),3%
COc1ccc(-c2noc(Cc3ccc(Cl)cc3)n2)cc1OC,-3%
CC1(C)C(=O)C2(CCCCC2)C(=O)OC1c1ccc(O)cc1 (stereo unspecified),5%
CN(C)S(=O)(=O)c1ccc(S(=O)(=O)N(Cc2ccco2)Cc2ccccc2Cl)cc1,-17%
Oc1cc2c(cc1O)[C@H](c1ccccc1)CNCC2,6.3µM*
O=C(c1cccc(F)c1)N1CCN(c2cccc(Cl)c2)CC1,-2%
CCOC(=O)c1cccc(NC(=O)C(NS(=O)(=O)c2ccc3c(c2)CCN3C(C)=O)C(C)C)c1 (stereo unspecified),2%
O=C(CCN1C(=O)COc2ccccc21)NCc1cccnc1,-2%
CCn1nccc1C(=O)Nc1ccc(Cl)cc1Cl,5%
O=C(Nc1ccc(Cl)cc1C(=O)NCCN1CCOCC1)c1ccco1,1%
O=C1CC(c2ccco2)c2ccc3ccccc3c2N1 (stereo unspecified),?
CCOc1ccc(OCC)c(S(=O)(=O)NCCCN2CCOCC2)c1,0%
Cc1ccc(CNC(=O)[C@H](C)[C@@H]2C[C@@]2(C)[C@@H](NC(=O)OCc2ccccc2)c2ccccc2)o1,-9%
COc1ccc2[nH]c3nc(SC(C)C)nnc3c2c1,9%
CCCc1nc(SCC(=O)NCc2ccc3c(c2)OCO3)c2c(=O)n(C)c(=O)n(C)c2n1,6%
Cc1cccc(NC(=O)c2cc3ccccc3c(=O)o2)n1,-1%
CCc1ccccc1S(=O)(=O)Cc1ccc(C(=O)N2CCN(c3ccccc3OC)CC2)o1,-11%
COC1OC(CO)C(OC2OC(C(=O)O)C(OC3OC(COS(=O)(=O)O)C(OC4OC(C(=O)O)C(OC5OC(CO)C(OC6OC(C(=O)O)C(OC7OC(COS(=O)(=O)O)C(OC8OC(C(=O)O)=C[C@H](O)C8OS(=O)(=O)O)C(O)C7NC(C)=O)[C@@H](O)C6O)C(O)C5NC(C)=O)[C@@H](O)C4O)C(O)C3NC(C)=O)[C@@H](O)C2O)C(O)C1NC(C)=O (stereo partly specified),2%
CC(=O)c1ccc(OCC(O)CN2CCN(Cc3ccccc3)CC2)cc1 (stereo unspecified),-1%
C[C@@H]1CCCN(CP(=O)(c2ccccc2)c2ccccc2)C1,0%[11.4 µM]
O=C(NC(C(=O)c1ccccc1)N1CCOCC1)c1cccs1 (stereo unspecified),13%
COc1ccc(C(=O)O)cc1S(=O)(=O)NCCCN1CCCC1=O,8%
O=C(NCc1ccco1)c1cc(-c2ccc(F)cc2)on1,-9%
CC(C)OCCCNC(=O)C1CC(=O)N(C2CCCCCCC2)C1 (stereo unspecified),13%
COc1cc2[nH]c(=O)n(CCC(=O)NCc3cccnc3)c(=O)c2cc1OC,25µM*
COc1cccc(CNC(=O)C2CCN(S(=O)(=O)N3CCCCC3)CC2)c1,2%
CC(C)CC1(C)NC(=O)N(CCN2C(=O)c3ccccc3C2=O)C1=O (stereo unspecified),11%
COCCCNC(=O)c1ccc(CS(=O)(=O)c2ccc(Br)cc2)o1,6%

# This is a subset; the hit share may differ from the screen's.
